Bioassay records: PubChem BioAssay, National Center for Advancing Translational Sciences (NCATS)
Rango dissoc inh: qHTS Assay for Inhibitors of RanGTP induced Rango (Ran-regulated importin-beta cargo) - Importin beta complex dissociation; Biochemical FRET Rango-importin beta, RanGTP-induced dissociation; Potency, µM (titrated, usually from 46.1 µM), for the others: at the highest dose activity change, negative = inhibition; AID 540253, 2011; 340,000 compounds, 0.071% hits; Snurportin-1 (Homo sapiens) + GTP-binding nuclear protein Ran (Homo sapiens) + Importin …; active means falling FRET ratio curve, often poorly fitted, with flat reads before Ran was added; inconclusive means other falling curves, or compound fluorescence or quenching; inactive means flat or rising ratio curve;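 note: potency is the fitted concentration of half-maximal effect; % of control where 0% means no effect; nearly all actives have a fitted effect of over 45% in size; -100% = wells without RanGTP and RCC1; the record marks most hits as doubtful in a second field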
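Quantitative HTS using a FRET biosensor: 0.1 uM Rango, 0.25 uM importin beta, 0.6 uM Ran, 2 mM GTP, 0.2 uM RCC1 final, PBS with DTT, Tween-20 and BSA. Post-read taken 45 min after Ran addition.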
Rango-impB inh: qHTS Assay for Inhibitors of Rango (Ran-regulated importin-beta cargo) - Importin beta complex formation | Importin subunit beta-1 (Homo sapiens), Q14974 | Rango CFP/YFP FRET sensor + importin beta, 45 min | Potency, µM (series often up to 92.2 µM), inactives show top-dose inhibition of complex formation | 340,000 compounds, 0.031% hits | AID 540263, 2011; active = rising FRET ratio curve, often small or poorly fitted; inconclusive = mostly compound fluorescence or quenching in the first reads; inactive = flat curves in all reads;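 note: potency is the fitted concentration of half-maximal effect; 0% = DMSO wells and 100% = buffer wells lacking importin beta; nearly all actives have a fitted effect of over 15% in size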
Target sequence (Q14974 whole entry, looked up): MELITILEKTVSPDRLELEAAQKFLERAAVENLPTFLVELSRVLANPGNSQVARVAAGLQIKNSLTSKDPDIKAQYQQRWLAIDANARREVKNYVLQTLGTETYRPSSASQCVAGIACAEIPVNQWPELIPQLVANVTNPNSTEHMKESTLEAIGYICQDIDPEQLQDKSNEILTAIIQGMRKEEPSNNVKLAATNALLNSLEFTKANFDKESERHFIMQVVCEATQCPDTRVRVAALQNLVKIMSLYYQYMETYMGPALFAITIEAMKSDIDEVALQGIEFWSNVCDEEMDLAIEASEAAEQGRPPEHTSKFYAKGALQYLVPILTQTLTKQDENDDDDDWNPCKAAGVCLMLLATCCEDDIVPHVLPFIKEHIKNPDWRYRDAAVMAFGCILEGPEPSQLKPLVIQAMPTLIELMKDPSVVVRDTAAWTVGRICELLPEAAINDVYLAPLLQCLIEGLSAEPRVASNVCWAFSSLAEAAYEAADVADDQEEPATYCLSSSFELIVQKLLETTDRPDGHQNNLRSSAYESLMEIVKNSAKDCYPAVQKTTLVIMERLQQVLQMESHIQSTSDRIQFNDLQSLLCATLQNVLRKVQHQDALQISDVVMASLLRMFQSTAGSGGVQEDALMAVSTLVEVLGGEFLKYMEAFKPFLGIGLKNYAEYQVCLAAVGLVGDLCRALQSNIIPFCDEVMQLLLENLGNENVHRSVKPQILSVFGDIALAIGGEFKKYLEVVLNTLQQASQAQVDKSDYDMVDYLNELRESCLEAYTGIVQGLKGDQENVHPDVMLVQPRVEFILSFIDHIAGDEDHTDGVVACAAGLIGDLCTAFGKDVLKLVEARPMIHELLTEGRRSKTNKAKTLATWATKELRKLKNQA
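FRET biosensor Rango (snurportin 1 IBB between N-terminal EYFP and C-terminal Cerulean), 50 nM in PBS/1 mM DTT/0.02% Tween-20/0.1% BSA, preincubated 5 min RT with compound; 0.125 microM importin beta added, 45 min RT, CFP/YFP FRET ratio read.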
miR-21 reporter: qHTS Assay for Modulators of miRNAs and/orActivators of miR-21 | HeLa miR-21 FLuc reporter, luciferase, 48 h | Potency, µM (top dose mostly 38.3 µM), inactives show at the highest dose reporter change, positive = more light | 340,000 tested, under 10 active | AID 2288, 2010; active = well fitted rising curve with a large enough effect; inconclusive = small, poorly fitted or top-dose-only effect; inactive = no such curve, though single readings can be large or run the other way;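 note: % of control where 0% means no effect; miR-21 action dims this reporter so a rising signal means less miR-21 action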
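HeLa cells stably expressing CMV-driven firefly luciferase with a downstream miR-21 binding sequence, endogenously expressing miR-21, were treated with titrations (up to about 40uM final) for 48 hours at 37 degree Celsius. Luciferase luminescence was read after lysis.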
GLA inh pH 4.5: qHTS Assay for Inhibitors of Human alpha-Galactosidase at pH 4.5; 230,000 tested, under 10 active; AID 1467, 2008; Alpha-galactosidase A (Homo sapiens), P06280; purified enzyme, 4-MU-alpha-Gal fluorescence, pH 4.5; activity change, negative = inhibition, % at 105 µM; inconclusive = small, poorly fitted or top-dose-only inhibition, or a rising curve; inactive = flat fitted curve, though single readings scatter; no compound was filed as active;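 note: 0% = full activity with enzyme and -100% = basal without enzyme; dose as in the result columns while the protocol names 77 µM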
* hit, by the source's call; ? = inconclusive; . = no result given; & = joins results of further samples. The list is partial, so the mix of outcomes need not match the whole.

nr	SMILES	Rango dissoc inh	Rango-impB inh	miR-21 reporter	GLA inh pH 4.5
1	COc1ccc(-n2c(SC(C)C(=O)Nc3ncc(Cl)cc3Cl)nc3ccccc32)cc1 (centres undefined)	-14%	-5.2%	?	0
2	COc1cc(C(=O)NCc2ccc(S(N)(=O)=O)cc2)ccc1OCC(=O)Nc1cccc(C(F)(F)F)c1	-6%	3.5%	.	.
3	CC(CN(C)Cc1ccccc1)OC(=O)c1cccs1 (centres undefined)	0%	3.7%	1%	-1
4	O=C(CNC(=O)c1cccs1)NCC(=O)OCc1c(Cl)cccc1Cl	-1%	-1.2%	0%	14
5	CC(Oc1ccccc1)C(=O)NNC(=O)c1ccccn1 (centres undefined)	-5%	-4.5%	?	-3
6	CCOC(=O)Cc1csc(NC(=O)c2ccc3ccccc3n2)n1	11%	-0.1%	-19%	.
7	N=c1c(S(=O)(=O)c2ccc(Cl)cc2)cc2c(=O)n3ccccc3nc2n1Cc1ccco1	?	?	1%	.
8	Cc1ccccc1C(=O)/C=C1\NC(=O)CS1	0%	-1.5%	-11%	-7
9	CC(=O)N(c1ccccc1)C1CC(C)N(C(=O)c2ccccc2)c2ccccc21 (centres undefined)	13%	-1.4%	17%	.
10	CC(C)=CCN1CCN(CCC2=C(C)CCCC2(C)C)CC1CCO (centres undefined)	2%	0.6%	0%	4
11	CCc1cc(=O)[nH]c(SCC(=O)NCc2ccc3c(c2)OCO3)n1	0%	-1.3%	.	.
12	COc1ccc(N2C(C(C)=O)=NN(c3ccccc3)C2c2cccs2)cc1 (centres undefined)	.	.	5%	0
13	CC(CC(=O)O)CC(=O)Nc1ccc(Br)cc1 (centres undefined)	-1%	-0.6%	-7%	-7
14	C/C(=N\NC(=O)c1ccc2nc[nH]c2c1)c1ccc([N+](=O)[O-])cc1	.	.	-8%	-8
15	C(=C\c1ccc(/C=C/c2ccccc2)nn1)/c1ccccc1	.	.	-7%	7
16	C=CCSc1nnc(-c2c[nH]c3ccccc23)n1CC	-4%	1.8%	-10%	0
17	O=C(Nc1c(F)cc(F)cc1Br)c1cccnc1	-2%	1.5%	0%	-2
18	CN1CCN(C(=O)NC2CCCN2S(=O)(=O)c2ccc(Cl)cc2)CC1 (centres undefined)	5%	-1.4%	1%	0
19	O=c1c2ccccc2nc2sc3ccccc3n12	1%	-0.2%	-68%	6
20	O=C1/C(=C/c2ccccc2)NC(=S)N1C(c1ccccc1)c1ccccc1	-29%	?	23%	4
21	COc1ccc(O)c(-c2[nH]ncc2C(=O)c2ccccc2C)c1	25%	-4.8%	11%	-4
22	CC1CCN(S(=O)(=O)c2ccc(C(=O)NC3CCS(=O)(=O)C3)cc2)CC1 (centres undefined)	11%	0.4%	.	.
23	O=C1c2cccnc2C(=O)N1Cc1ccccc1	-8%	-5.4%	-4%	0
24	CCOC(=O)C1CCCN(C(=O)c2cccc(N3C(=O)c4ccccc4C3=O)c2)C1 (centres undefined)	-4%	-0.3%	.	.
25	COC(=O)C1=NNC2C(=O)N(C3CCCCC3)C(=O)C12 (centres undefined)	2%	-2.0%	0%	6
26	COc1ccc(C(=O)NNC(=O)CSc2nc(C(C)C)nc3ccccc23)cc1	-17%	0.5%	-5%	.
27	CN(C(=O)CSc1nnc(C2CC2)n1C1CC1)C1(C#N)CCCCC1	-2%	0.1%	.	.
28	COC(=O)C(O)(CC(=O)Nc1ccc(Cl)cc1Cl)C(F)(F)F (centres undefined)	-9%	-0.9%	0%	-7
29	O=C(Nc1ccc(-n2ccnc2P(=O)(O)c2ccccc2)cc1)c1ccccc1Cl	-2%	-0.4%	0%	-4
30	CCN1C[C@@H]2[C@@H]3C(=O)N(C)C(=O)[C@@H]3[C@](Cc3ccccc3)(C1=O)N2C(=O)c1ccc(C(C)(C)C)cc1	2%	7.4%	.	.
31	CC(C)N(C(=O)COC(=O)Cn1cnc2ccccc21)c1ccccc1	-1%	-1.2%	.	.
32	CSc1ccccc1NC(=O)CN(C1CCCCC1)S(C)(=O)=O	1%	4.1%	-6%	0
33	C/C(NCCN1CCOCC1)=C(\C#N)C(N)=O	20%	-3.2%	-5%	-1
34	CC(C)CC(=O)NC(=S)Nc1ccc(N2CCOCC2)cc1	0%	3.3%	-34%	-9
35	O=C(NCc1ccc(Cl)cc1)c1csc(-c2cccnc2)n1	-9%	2.7%	14%	0
36	Cc1nc2scc(C)n2c(=O)c1S(=O)(=O)N1CCN(c2ccccc2F)CC1	17%	?	-10%	.
37	COc1cc2nc(C3CC3)n(NC(=O)c3ccc(Cl)cc3)c(=O)c2cc1OC	-14%	-1.9%	22%	-3
38	N#CCCn1ncc2ccccc21	-14%	0.9%	0%	2
39	FC(F)Sc1ccc(-n2cc(-c3ccc(Cl)cc3)[n+]3c2CCC3)cc1	3%	0.9%	25%	5
40	Cc1c(C(=O)NC2CC2)oc2ccc(S(=O)(=O)N3CCCCCC3)cc12	8%	-3.4%	13%	5
41	Cc1ccc(C)c(N2CCN(C(=O)CN(C)S(=O)(=O)c3ccc4c(c3)CCC(=O)N4)CC2)c1	10%	2.5%	2%	11
42	CC1(C)C(=O)Nc2ccccc2N1C(=O)COc1cccnc1[N+](=O)[O-]	21%	-1.9%	-2%	4
43	CC(C)(C)C(=O)Nc1sc2c(c1C#N)CCCCC2	12%	-2.8%	-3%	4
44	CC(=O)NCCCC(=O)NNC1CC(=O)N(c2cccc(Cl)c2)C1=O (centres undefined)	-11%	-0.3%	4%	0
45	Fc1ccc(CSc2ccc(-c3ccc4c(c3)OCO4)nn2)cc1	?	1.1%	-19%	-2
46	O=C(Nc1ccc2c(c1)OCCO2)N1CCN(Cc2ccccc2)CC1	-3%	-0.9%	-44%	10
47	O=C1COc2ccc(C(=O)COC(=O)c3ncc(Cl)c(Cl)c3Cl)cc2N1	0%	0.5%	.	.
48	Cc1cnc(CNC(=O)CC2C(=O)NCCN2Cc2cccc(F)c2F)cn1 (centres undefined)	-16%	-1.6%	-1%	.
49	COC(=O)C1(C)NC(c2ccccc2C)C2C(=O)N(c3ccc(F)cc3)C(=O)C21 (centres undefined)	5%	-0.3%	-8%	.
50	CC(C)CC(=O)n1sc(NC(=O)c2ccccc2)nc1=O	-17%	0.3%	-1%	3

Some of the entries so far, with each value named.
(14) C/C(=N\NC(=O)c1ccc2nc[nH]c2c1)c1ccc([N+](=O)[O-])cc1
- Rango dissoc inh = .
- Rango-impB inh = .
- miR-21 reporter = -8%
- GLA inh pH 4.5 = -8

(15) C(=C\c1ccc(/C=C/c2ccccc2)nn1)/c1ccccc1
- Rango dissoc inh = .
- Rango-impB inh = .
- miR-21 reporter = -7%
- GLA inh pH 4.5 = 7

(16) C=CCSc1nnc(-c2c[nH]c3ccccc23)n1CC
- Rango dissoc inh = -4%
- Rango-impB inh = 1.8%
- miR-21 reporter = -10%
- GLA inh pH 4.5 = 0

Remaining list, next part:
nr	SMILES	Rango dissoc inh	Rango-impB inh	miR-21 reporter	GLA inh pH 4.5
51	CC(CO)(CO)NC(=O)c1ccc(=O)[nH]n1	25%	-3.7%	-12%	-27
52	Cc1ccc(-c2cc(=O)c3ccccc3[nH]2)cc1	-3%	2.0%	-14%	-13&5
53	COc1nc(NC(C)=O)nc(C)c1Br	.	.	-1%	0
54	O=C(ON=C1CCSCC1)c1ccccc1	-4%	0.1%	.	.
55	CN(C)CCCNc1c2c(nc3ccccc13)CCC2	-1%	0.1%	24%	.
56	Cc1cn(CC(=O)NCCN2CCOCC2)c(=O)[nH]c1=O	-9%	1.6%	.	.
57	Cc1nn(C)cc1CNC(=O)c1cnn2c(C(F)F)cc(C3CC3)nc12	7%	-0.9%	-28%	-4
58	Cc1cc(NC(=O)CSc2nnc(Nc3ccccc3C)s2)no1	-7%	-2.3%	-2%	0
59	Cc1cnn(Cc2ccccc2)c1N	-10%	-4.4%	0%	-14
60	Cc1cc(C(=O)OCC(=O)Nc2cc(S(=O)(=O)N(C)C)ccc2Cl)c2ccccc2n1	34%	0.5%	-21%	-4
61	Cc1cccc(NCC(=O)NNC(=S)Nc2ccccc2)c1	-2%	2.7%	-13%	9
62	CCCSCCCNC(=O)Cn1cc2c(n1)CCCCC2	-16%	-2.8%	-6%	1
63	Oc1ccc(/C=N/Nc2cc(N3CCCC3)nc(N3CCCC3)n2)cc1O	?	?	-29%	-3
64	Cc1ccc(NC(=O)/C=C/c2cccc([N+](=O)[O-])c2)nc1	4%	1.8%	-10%	-2
65	COc1ccc(C(=O)Nc2cccc3cccnc23)cc1OC	-2%	1.3%	-33%	-7
66	CCCCc1n[nH]c2c1/C(=N/O)CC(c1ccccc1)C2 (centres undefined)	-1%	5.7%	-15%	-1
67	COc1ccc(CCNC(=O)CN(C)S(=O)(=O)c2cccs2)cc1OC	1%	1.1%	-2%	7
68	CCOc1ccc(OCCC(=O)OCC(=O)Nc2ccc(C)c(S(=O)(=O)N3CCCCC3)c2)cc1	4%	3.7%	.	.
69	CCCCN(C(=O)C1CC(=O)N(c2ccc3c(c2)OCCO3)C1)c1c(N)n(CCCC)c(=O)[nH]c1=O (centres undefined)	-7%	-3.2%	.	.
70	COc1ccc(C2CC(c3ccccc3)=NN2C(=O)COC(=O)C2(C)CC2(Cl)Cl)cc1 (centres undefined)	-15%	?	20%	2
71	Cc1ccccc1-c1nc(CN2CCN(C(=O)c3ccco3)CC2)c(C)o1	-11%	0.4%	-7%	.
72	Cc1ccc(-c2nc3cccnc3o2)cc1NC(=O)COc1ccc(Cl)cc1C	9%	4.1%	-8%	-8
73	NS(=O)(=O)c1ccc(NC(=O)c2ccc3c(c2)OCO3)cc1	-4%	1.5%	-16%	.
74	O=c1[nH]c2ccccc2c(O)c1SCCO	0%	0.9%	-2%	-4
75	O=C(NC(=S)N1CCN(Cc2ccccc2)CC1)c1cccnc1	7%	2.0%	0%	-4
76	CC(=O)n1cc(C2C(=O)CCCC2=O)c2ccccc21	0%	1.6%	-3%	-1
77	CC(=O)c1ccc(S(=O)(=O)N2CCN(CC(=O)NC(=O)NC3CCCCC3)CC2)cc1	?	-3.4%	.	.
78	COc1ccc(NC(=O)c2ccccc2NC(=O)NC2CCCCC2)cc1	0%	-5.0%	-23%	-6
79	CC(C)NC(=O)COc1coc(CN2CCN(c3ccccc3)CC2)cc1=O	1%	-2.4%	5%	.
80	CO/N=C(\c1nonc1N)N1CCN(c2ccc(Cl)cc2[N+](=O)[O-])CC1	14%	-1.0%	6%	5
81	COC(=O)c1ccc(-c2ccc(/C=N/N3C(=O)C4C5C=CC(C6CC56)C4C3=O)o2)cc1 (centres undefined)	0%	1.3%	-39%	-2
82	Cc1ccccc1Cn1nnc(-c2cccc(C(=O)O)c2)n1	1%	3.2%	-59%	1
83	Cc1ccc(CNC(=O)CN2CCN(Cc3ccc(Cl)cc3)C2=O)cc1	3%	-1.1%	-1%	0
84	CC(Oc1ccc(Br)cc1)C(=O)Nc1nnc(C2CC2)s1 (centres undefined)	14%	0.1%	.	.
85	C=CCNC(=O)C1CCN(c2ccc(S(=O)(=O)N3CCOCC3)cc2[N+](=O)[O-])CC1	-12%	-0.5%	5%	5
86	O=C(CCl)Nc1cccn2ncnc12	0%	0.2%	24%	10

Three successive entries already listed:
nr	SMILES	Rango dissoc inh	Rango-impB inh	miR-21 reporter	GLA inh pH 4.5
1	COc1ccc(-n2c(SC(C)C(=O)Nc3ncc(Cl)cc3Cl)nc3ccccc32)cc1 (centres undefined)	-14%	-5.2%	?	0
2	COc1cc(C(=O)NCc2ccc(S(N)(=O)=O)cc2)ccc1OCC(=O)Nc1cccc(C(F)(F)F)c1	-6%	3.5%	.	.
3	CC(CN(C)Cc1ccccc1)OC(=O)c1cccs1 (centres undefined)	0%	3.7%	1%	-1

Taken from above.
GLA inh pH 4.5 result of #1 reads 0
miR-21 reporter result of #12 reads 5%
